OX1R antag = blocks the human orexin 1 receptor; hit rate 0.43% among 330,000; CHO/OX1R cells, Fluo-8 calcium fluorescence, orexin A; O43613; inhibition, % at 5 µM;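 active means inhibition above its plate's threshold, mean inhibition of all tested compounds on the plate plus 3 SD, cut at about 37% in these data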;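 further: 0% = orexin A challenge wells and 100% = SB-334867-A antagonist wells; not every result past the cut was called active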
Target sequence (O43613 whole entry, looked up): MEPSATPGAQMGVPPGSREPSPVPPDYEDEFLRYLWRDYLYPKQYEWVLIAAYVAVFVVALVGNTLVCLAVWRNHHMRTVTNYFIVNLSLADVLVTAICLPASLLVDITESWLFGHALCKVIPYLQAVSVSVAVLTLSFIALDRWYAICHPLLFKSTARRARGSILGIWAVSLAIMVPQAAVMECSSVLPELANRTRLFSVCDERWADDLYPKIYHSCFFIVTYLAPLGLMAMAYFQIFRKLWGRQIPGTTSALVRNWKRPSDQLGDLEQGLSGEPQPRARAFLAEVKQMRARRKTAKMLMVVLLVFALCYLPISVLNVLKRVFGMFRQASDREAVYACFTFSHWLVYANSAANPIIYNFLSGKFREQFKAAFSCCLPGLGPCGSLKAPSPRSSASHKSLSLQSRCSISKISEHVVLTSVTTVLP
The depositor's hits bear a star. Not all compounds are listed; most or all hits stand in other tables.

SMILES	OX1R antag
CCc1ccc(OCCCC(=O)Nc2nccs2)cc1	-14.7
O=C(CSc1nncn1-c1ccccc1)Nc1ccccc1F	-25.7
O=C(O)C/C(=C\c1ccc(N2CCOCC2)c([N+](=O)[O-])c1)c1nc2ccccc2s1	1.0
COC(=O)c1ccc(NC(=O)CN2C(=O)c3ccccc3S2(=O)=O)cc1	-12.3
CCC(CC)C(=O)Nc1nnc(S(=O)(=O)Nc2ccccc2C)s1	-7.9
CCCOC(=O)c1ccc(NC(=O)CC(C)(C)C)cc1	-19.5
COCC(C)n1c(COc2ccccc2F)nnc1SCC(=O)Nc1oc(C)c2c(C)n[nH]c(=O)c12 (configuration not stated)	-11.7
CCOC(=O)c1c(NC(=O)CSc2nnnn2-c2ccc3c(c2)OCCO3)sc(C)c1C	-20.5
COc1ccc(NC(=O)N(Cc2ccc(C)cc2)Cc2cccnc2)c(OC)c1	-18.6
CCc1ccccc1NC(=O)C1C(c2ccccc2)C1(Cl)Cl (configuration not stated)	-19.2
C=CCn1c(Cc2cccs2)nnc1SCC(=O)Nc1cccc(OC)c1	-15.5
COc1cccc(-n2c(Cc3cc(=O)[nH]c(=O)[nH]3)nnc2SC(C)C)c1	0.8
Cc1nc(-c2ccc3c(c2)OCO3)cs1	-17.1
CCOCCCNC(=O)c1cc(Nc2ccc(OC)cc2OC)nc2ccccc12	-32.9
Cc1ccc(S(=O)(=O)N(C)c2ccc(OCc3cccc(C)c3)cc2)cc1	-12.0
COC(=O)C1C(c2ccccc2)C(C(=O)N2CCN(C)CC2)C1c1ccccc1 (configuration not stated)	-24.5
CCOC(=O)c1cccc(NC(=O)Cn2nc(C)n3cccc3c2=O)c1	-19.3
N/C(=N\OC(=O)c1ccccc1Cl)c1cccnc1	-18.1
Cc1nn(-c2ccccc2)c(Cl)c1/C=N/NC(=O)c1[nH]ncc1Br	-19.6
C/C(CC(=O)NCc1ccco1)=N\NC(=O)c1ccc(Cl)cc1Cl	-1.6
COC(=O)c1c[nH]n2c(=O)c(C(C)C)c(C)nc12	-7.8
CCC(C)Nc1nc(OC)nc(N(C)C#N)n1 (configuration not stated)	-25.5
CCC(C)C1C(C#N)=C(N)OC2=C1C(=O)CC(C)(C)C2 (configuration not stated)	-33.9
Cc1cccc(NC(=O)CSc2nc3ccccc3nc2N2CC(C)OC(C)C2)c1 (configuration not stated)	-61.1
CN(C(=O)CSc1nc(-c2ccccc2)cs1)C1CCS(=O)(=O)C1 (configuration not stated)	-5.1

The list goes on (four carried over from the part before).
SMILES	OX1R antag
CCC(C)Nc1nc(OC)nc(N(C)C#N)n1 (configuration not stated)	-25.5
CCC(C)C1C(C#N)=C(N)OC2=C1C(=O)CC(C)(C)C2 (configuration not stated)	-33.9
Cc1cccc(NC(=O)CSc2nc3ccccc3nc2N2CC(C)OC(C)C2)c1 (configuration not stated)	-61.1
CN(C(=O)CSc1nc(-c2ccccc2)cs1)C1CCS(=O)(=O)C1 (configuration not stated)	-5.1
Cc1cc(N2CCOCC2)nc2ccc(NC(=S)N3CCN(c4ccccc4)CC3)cc12	-18.6
Cc1ccc(CNc2nc3ccccc3s2)s1	-16.9
CCOCC(O)CNC(=O)c1ccc(OC2CCN(C(=O)c3cccnc3)CC2)cc1 (configuration not stated)	-13.8
COc1ccc(C(=O)Nc2ccc(S(=O)(=O)Nc3cc(C)nc(C)n3)cc2)c(OC)c1	-4.2
OCCNc1nc(Nc2ccccc2Cl)nc(N2CCCC2)n1	-16.1
CCOC(=O)N1CCN(C(=O)CCc2c(C)nc3nc(C)nn3c2C)CC1	-6.9
O=C(CN1C(=O)c2ccccc2S1(=O)=O)NCc1cccnc1	-4.7
Cc1c(Cl)cccc1NC(=O)Cc1cccs1	-9.1
CCc1c(C)sc(NC(=O)c2ccc(Br)o2)c1C(=O)OC	-20.6
CC1(C)NC(=O)N(c2ccccc2Cl)C1(C)NO (configuration not stated)	-14.2
CCC1CCC(C(=O)NC(CCSC)C(=O)NCCN(CC(C)C)CC(C)C)CC1 (configuration not stated)	-22.5
O=C(NC1CCCCCC1)c1cc(S(=O)(=O)N2CCOCC2)ccc1F	-11.8
O=[N+]([O-])c1cc(/C=N/N2CCN(c3ccccc3)CC2)ccc1Cl	-17.9
Nc1nc(-c2ccc(Br)cc2)cs1	-6.0
CCC1SC2=NC(C)=C(C(=O)OC)C(c3ccc(C)cc3)N2C1=O (configuration not stated)	-44.1
COc1cc(CN2CC(C)OC(C)C2)cc(OC)c1 (configuration not stated)	-2.1
CS(=O)(=O)N(Cc1ccccc1)c1ccc(C(=O)N2CCOCC2)cc1	-18.0
O=S(=O)(c1ccc(Cl)c(F)c1)N1CCC(c2nc(-c3ccncc3)no2)CC1	-12.8
COc1ccc(S(=O)(=O)N2CCN(C(=O)c3ccc(C)o3)CC2)cc1	-23.1
Cc1ccc(N2CC(C(=O)Nc3cccnc3)CC2=O)cc1Cl (configuration not stated)	-8.2
COc1ccc(/C=N/NC(=O)CNC(=O)c2ccc3c(c2)OCCO3)cc1OC	-30.8
O=C(CCN1C(=O)[C@@H]2Cc3ccccc3CN2C1=O)N[C@H](Cc1ccccc1)C(=O)O	-21.8
Cc1ccsc1CN(C)C(=O)c1ccc(Oc2ccccc2)cc1	-20.2
CC(O)c1c(OCc2ccccc2)ncnc1OCc1ccccc1 (configuration not stated)	-34.1
O=C(CSc1nc2c(c(=O)n1-c1ccc(Br)cc1)SCC2)Nc1nccs1	0.3
SMILES	OX1R antag
Cc1cc(C)n2nc(S(=O)(=O)N(C)c3ccccc3)nc2n1	-7.3
COc1ccc(N2CCN(C(=O)CCN3C(=S)NC(C)(C)CC3C)CC2)cc1 (configuration not stated)	-3.9
COc1cc(C(=O)Nc2nnc(C(C)(C)C)s2)c([N+](=O)[O-])cc1OC	-18.8
COc1ccc(-c2nnc(SCC(=O)Nc3cc(C)on3)o2)cc1	-9.9
CCCCC(CC)CNS(=O)(=O)c1ccc2c(c1)CCN2C(=O)CCC(=O)O (configuration not stated)	-18.9
COc1ccc(NC(=O)/C=C/c2ccc(OC)c(OC)c2)cn1	-9.9
Cn1c(SCC(N)=O)nnc1C1CCN(C(=O)NCc2ccccc2)CC1	-10.6
CCOc1ccccc1CN1CCN(Cc2cn(C)nc2-c2ccccc2)CC1CCO (configuration not stated)	-26.4
COc1cc([N+](=O)[O-])ccc1NC(=O)NCc1cccnc1	-23.5
COc1ccc(/C=N/NC(=O)c2ccccc2NC(=O)c2ccco2)c(OC)c1	-29.1
Cc1nn(C(C)C(=O)NC2CCCCCC2)c(=O)c2nn(-c3ccccc3)c(C)c12 (configuration not stated)	-30.4
CCCNc1ccc(C(=O)OCC)cc1[N+](=O)[O-]	-5.3
COc1ccc(-n2nc(C(=O)NCC(=O)N3CCCC(C)C3)c3ccccc3c2=O)cc1 (configuration not stated)	-44.8
Fc1ccccc1C1CCN(Cc2nc(COc3ccccc3)no2)C1 (configuration not stated)	-23.6
CCC(=O)Nc1cc(C(=O)O)ccc1S(=O)(=O)c1ccc(C)cc1	-5.7
O=C1Nc2ccccc2N(O)N1c1ccc(Cl)cc1	-9.5
COc1ccc(C2=Nn3c(nnc3-c3ccco3)SC2)cc1OC	-6.9
CC(C)c1nc(CNC(=O)c2cc(COc3c(F)cccc3F)on2)cs1	9.4
O=C(O)CCN1C(=O)/C(=C\c2ccncc2)SC1=S	5.1
COc1ccc2[nH]cc(C(=O)C(=O)N3CCCCC3)c2c1	-4.6
CCOc1ccccc1NC1c2ccccc2C(=O)N1c1cccnc1 (configuration not stated)	-14.2
CC(C)C(O)(C#CCN1CCCCC1)c1ccccc1 (configuration not stated)	-23.1
COc1ccccc1Nc1nc(C)nc2c1oc1ccccc12	-26.0
CN1CCN(C(=O)C(N)Cc2ccccc2)CC1 (configuration not stated)	-13.7
O=c1cc(-c2ccc(O)c(O)c2)oc2cc(O)c(C3OC(CO)C(O)C(O)C3O)c(O)c12 (configuration not stated)	5.6

A stretch from further up, as a working copy:
SMILES	OX1R antag
CC(C)C(O)(C#CCN1CCCCC1)c1ccccc1 (configuration not stated)	-23.1
COc1ccccc1Nc1nc(C)nc2c1oc1ccccc12	-26.0
CN1CCN(C(=O)C(N)Cc2ccccc2)CC1 (configuration not stated)	-13.7
O=c1cc(-c2ccc(O)c(O)c2)oc2cc(O)c(C3OC(CO)C(O)C(O)C3O)c(O)c12 (configuration not stated)	5.6

(list continues)
SMILES	OX1R antag
Cc1sc2nc(CC(N)=O)[nH]c(=O)c2c1-c1ccccc1	8.1
Cc1ccc(/C=C2/NC(=O)N(Cc3ccccc3F)C2=O)s1	12.3
Cc1nc2ccc(S(=O)(=O)NC(C(=O)NC3CCCC3)C(C)C)cc2s1 (configuration not stated)	-17.8
CCOc1ccccc1NC(=O)CN(c1ccc(OC)cc1)S(=O)(=O)c1c(C)[nH]c(=O)[nH]c1=O	10.4
CCCCn1c(N)c(N(CCOC)C(=O)c2oc3ccc(OCC)cc3c2C)c(=O)[nH]c1=O	0.4
Cc1cccc(OCC(=O)O/N=C(\N)c2ccncc2)c1	-9.5
O=C(Nc1ccccc1F)c1ccccc1C(=O)Nc1ccccc1F	-7.3
COc1ccc(C2c3ccc(O)cc3Oc3ncn(Cc4ccco4)c(=N)c32)cc1OC (configuration not stated)	-15.4
CN1CCN(C(=O)c2ccc(CN(c3ccccc3)S(=O)(=O)c3ccccc3)cc2)CC1	-13.3
COc1ccc(/C=C2\Oc3cc(OCC(=O)N4CC(O)C[C@H]4C(=O)O)ccc3C2=O)cc1OC (some centres not stated)	-9.7
COc1ccc(N/C(=N\c2nc(C)cc(C)n2)NC(C)=O)cc1OC	-34.5
CCOc1ccc(-c2cn3ccccc3n2)cc1	0.1
O=[N+]([O-])c1ccc(-c2nc(NCc3ccccc3)c3ccccc3n2)cc1	-4.8
C=CCNC(=S)NNc1nc2c(c(=O)[nH]1)C1(CCCCC1)Cc1ccccc1-2	-24.5
CCCn1cc(CN2CCCC(CNC(=O)c3ccc(F)cc3)C2)c(C)n1 (configuration not stated)	-9.4
Cc1cc(C(=O)Nc2ccc3nc(C)sc3c2)c2ccccc2n1	-24.2
C#CCOc1ccc(/C=C2/C(=O)ON=C2C)cc1Cl	-13.8
COc1ccc(NC(=O)C2CCN(c3nc(C)nc4c3CCC4)CC2)cc1	-22.8
O=C(NCc1ccc(Cl)cc1)C(=O)Nc1nccs1	-9.7
Cc1nc2nc[nH]n2c(=O)c1CCOC(=O)c1ccccc1F	-8.9
O=C1CCC(C(=O)N2CCN(c3ccccc3)CC2)CN1CC1CCCCC1 (configuration not stated)	-22.8
CCOC(=O)c1[nH]c2cc3c(cc2c1NC(=O)CN1CC(C)CC(C)C1)OCO3 (configuration not stated)	-8.8
Cc1cc(C)c(C)c(OCC(=O)O/N=C(\N)c2cccnc2)c1	-20.6
CCn1cc(C(=O)N[C@H](C(=O)NCCCO)C(C)C)c(=O)c2cc3c(cc21)OCO3	16.5
COc1cccc(-c2nc(CS(=O)(=O)CC(=O)NC3CCC(C)CC3)c(C)o2)c1 (configuration not stated)	-28.2
SMILES	OX1R antag
COc1ccc(NS(=O)(=O)c2ccc(NC(=O)c3ccc(N(C)S(C)(=O)=O)cc3)cc2)cc1	34.4
CCOc1ccc(NC(=O)CC2CC(C)(C)OC2=O)cc1 (configuration not stated)	-12.2
COc1ccc(NC(=O)C2CCCN2C(=O)NCc2ccccc2)c(OC)c1 (configuration not stated)	-21.7
O=C(CN(C1CCCCC1)S(=O)(=O)c1ccc(F)cc1)NC1CC1	-4.3
O=C(Nc1cccnc1)c1ccc(S(=O)(=O)c2ccccc2)cc1	-13.0
COc1ccccc1-c1nnc(SCC(=O)N2CCOCC2)n1-c1ccccc1	-18.5
CCOC(=O)N1CCN(S(=O)(=O)N2CCCC(C(=O)NCc3ccc(OC)cc3OC)C2)CC1 (configuration not stated)	-32.0
Cc1cc(C)n2nc(C(=O)N/N=C/C=C/c3ccccc3)nc2n1	-10.8
COC(=O)CCS(=O)(=O)c1ccc(NC(C)=O)cc1	3.5
CCOc1ccc(NS(=O)(=O)c2c(C(=O)N3CCCCCC3)c(C)n(C)c2C)cc1	-19.1
Cn1cc(Br)c(C(=O)NC(=S)Nc2ccc(S(N)(=O)=O)cc2)n1	-12.2
O=C(NC(Cc1ccccc1)C(=O)O)/C(=C\c1ccccc1F)NC(=O)c1ccccc1 (configuration not stated)	-25.3
O=C(COc1cccc2cccnc12)NCC(F)(F)F	-9.0
O=C(NN1C(=O)c2ccccc2NC1c1cccnc1)c1ccccc1 (configuration not stated)	-9.7
CCOC(=O)c1c(-c2ccccc2)csc1NC(=O)C(C)NCCCN1CCOCC1 (configuration not stated)	-4.3
CCN(CC)C(=O)Cn1cc(C(=O)C(=O)NCc2cccs2)c2ccccc21	-21.6
c1ccc(CCn2nnnc2C(c2cccnc2)N2CCN(c3ccccc3)CC2)cc1 (configuration not stated)	-3.8
CCN(CC)CCn1c(=N)n(CC(O)c2ccc(OC)c(OC)c2)c2ccccc21 (configuration not stated)	-15.0
CCOC(=O)COc1nc2c(c(-c3ccco3)c1C#N)CCc1ccccc1-2	-34.1
CCOC(=O)N1CCN(C(=O)CSc2ccc3nnc(-c4cccnc4)n3n2)CC1	-13.1
CC(/C=C/C=C/c1ccccc1)=N/NC(=O)CNc1ccccc1C	-13.7
CC(=O)Nc1cc(C(=O)OCC(=O)c2ccc(C)cc2)ccc1C	-15.9

An excerpt from above in order of heavy-atom count, falling.
SMILES	OX1R antag
CCOC(=O)N1CCN(S(=O)(=O)N2CCCC(C(=O)NCc3ccc(OC)cc3OC)C2)CC1 (configuration not stated)	-32.0
c1ccc(CCn2nnnc2C(c2cccnc2)N2CCN(c3ccccc3)CC2)cc1 (configuration not stated)	-3.8
CCOC(=O)N1CCN(C(=O)CSc2ccc3nnc(-c4cccnc4)n3n2)CC1	-13.1
CCOc1ccc(NC(=O)CC2CC(C)(C)OC2=O)cc1 (configuration not stated)	-12.2
COC(=O)CCS(=O)(=O)c1ccc(NC(C)=O)cc1	3.5

Screening results as filed in PubChem BioAssay.
